Screening data (PubChem BioAssay)
B2AR ag = activates human beta-2 adrenergic receptor causing internalization. P07550. Am2.2-beta2AR cells, FAP receptor internalization, flow cytometry; reference of the scale not given here. response, % (test concentration not listed). actives 0.43% (n = 340,000). AID 504454;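 active = response above a set limit, near 3 SD of response in nonfluorescent compounds, cut at about 42% in these data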;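 note: stock transfer was 100 nL into about 11 µL; a reference agonist was the positive control; negative values mostly stem from fluorescent compounds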
LANA-H2B inh = blocks KSHV LANA binding to histone H2A/H2B | cell-free LANA-H2A/H2B peptide, fluorescence polarization | inhibition, % (concentration not given with the values) | actives 0.6% (n = 320,000); in the data active = inhibition mostly above about 10%, no sharp cut-off; inactive = mostly below about 6.7%;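 note: stock transfer was 7.5 nL into about 10 µL; 0% = median of vehicle wells and 100% = median of positive control wells; one replicate is shown; the record names a cut of 25% in any replicate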
Target sequence (Q9QR71 whole entry, looked up): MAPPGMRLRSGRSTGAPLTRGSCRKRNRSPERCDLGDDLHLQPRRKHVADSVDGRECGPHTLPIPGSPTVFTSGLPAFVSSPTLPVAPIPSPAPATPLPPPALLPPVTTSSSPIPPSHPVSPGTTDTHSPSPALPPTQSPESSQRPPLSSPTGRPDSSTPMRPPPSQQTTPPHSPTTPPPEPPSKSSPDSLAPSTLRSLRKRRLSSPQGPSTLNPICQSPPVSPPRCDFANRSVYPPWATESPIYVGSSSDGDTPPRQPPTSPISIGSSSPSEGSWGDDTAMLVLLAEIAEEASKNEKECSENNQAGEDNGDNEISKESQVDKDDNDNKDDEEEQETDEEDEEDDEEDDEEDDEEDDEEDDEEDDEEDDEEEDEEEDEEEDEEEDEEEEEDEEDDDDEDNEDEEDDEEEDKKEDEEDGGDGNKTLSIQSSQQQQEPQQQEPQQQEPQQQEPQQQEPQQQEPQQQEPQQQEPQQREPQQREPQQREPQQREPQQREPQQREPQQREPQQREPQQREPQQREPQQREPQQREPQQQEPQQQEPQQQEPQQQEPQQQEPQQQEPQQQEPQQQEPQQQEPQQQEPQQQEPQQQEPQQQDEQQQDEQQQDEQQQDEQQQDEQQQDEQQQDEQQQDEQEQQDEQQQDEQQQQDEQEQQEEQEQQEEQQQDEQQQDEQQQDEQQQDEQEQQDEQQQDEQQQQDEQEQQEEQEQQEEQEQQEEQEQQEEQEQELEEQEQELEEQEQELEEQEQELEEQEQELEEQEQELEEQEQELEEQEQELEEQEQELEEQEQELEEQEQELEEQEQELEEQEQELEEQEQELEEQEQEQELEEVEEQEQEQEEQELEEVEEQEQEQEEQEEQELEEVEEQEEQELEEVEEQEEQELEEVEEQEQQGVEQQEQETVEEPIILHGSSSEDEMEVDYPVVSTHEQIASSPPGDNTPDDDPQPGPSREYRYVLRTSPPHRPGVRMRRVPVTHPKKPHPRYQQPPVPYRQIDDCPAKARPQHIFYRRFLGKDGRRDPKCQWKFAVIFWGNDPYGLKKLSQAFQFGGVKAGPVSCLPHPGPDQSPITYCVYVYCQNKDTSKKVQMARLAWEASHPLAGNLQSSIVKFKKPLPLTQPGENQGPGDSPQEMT
RanGTP-Imp inh = disruptors of Ran-importin-beta complex formation – biochemical, FRET, CFP-Ran, YFP-importin-beta, homogeneous, primary screen. AID 2216. cell-free CFP-Ran/YFP-importin-beta FRET ratio. inhibition, % (concentration not given with the values). actives 1.1% (n = 300,000);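 active = most replicates above 15%; inconclusive = exactly half above 15%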;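 note: 0% = DMSO wells and 100% = Ran loaded with GDP instead of GTP; wells of about 40 µL received 100 nL stock; the first replicate is given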
HNF4A DNA FP = change in binding of human HNF4 alpha to DNA; HNF4a-FITC DNA binding, fluorescence polarization, 1 h; activity change, % at 10 µM; actives 0.3% (n = 360,000); AID 1224865; in the data active = activity change above about 30%, passing the limit was not always enough;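 note: controls were the assay level and a saturating level of protein; the project sought stronger binding though the title names inhibitors; some compounds called inactive have numbers as strong as hits; positive values seem to mean higher polarization but the record does not say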
Calb FLC = affects C. albicans growth with fluconazole; C. albicans CaCi-2 (fluconazole-resistant clinical isolate) + fluconazole, Alamar Blue growth, 48 h; growth inhibition, % (no concentration beside the values); actives 0.57% (n = 300,000); AID 1979;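 active = most replicates above 75%; inconclusive = exactly half above 75%; inactive = most below 75%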;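 note: all wells also contain fluconazole at 8 µg/ml as a sub-toxic cotreatment; 0% = median of DMSO wells and 100% = median of geldanamycin control wells; wells of about 8 µL received 7.5 nL stock; the first replicate is given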
ALR inh = blocks human ALR sulfhydryl oxidase activity. P55789. purified ALR, DTT oxidation, H2O2 HRP-luminol luminescence. inhibition, % (test concentration not listed). actives 3.8% (n = 290,000). AID 485317;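 active = mean and each replicate at 75% or more; inconclusive = only one of the two met; inactive = neither met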;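 note: stock transfer was 7.5 nL into about 7.5 µL; 0% = neutral wells and 100% = wells with inactivated enzyme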
Vif A3G = HIV-1 Vif–A3G interaction blockers – biochemical, TR-FRET, GST-Vif 1-94, biotin-A3G peptide, dose response retest, primary screen (AID 1117319) | TR-FRET GST-Vif / biotin-A3G peptide binding; higher % means a stronger effect; test concentration not given here; strong numbers were not always called active | actives 0.57% (n = 260,000) | inhibition, %, or IC50 in µM where a hit was titrated;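 active = above the screen mean plus three standard deviations and confirmed in dose response; inconclusive = results disagree or hit not tested in dose response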;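 note: Vif residues 1-94 fused to GST binding biotinylated APOBEC3G peptide 110-148; 0% = full assay without inhibitor and 100% = GST in place of GST-Vif; retest series ran down from 100 µM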
The depositor's hits bear a star; ? = inconclusive; nt = not tested or not shown; & = joins results of further samples.

The line under a structure holds: B2AR ag	LANA-H2B inh	RanGTP-Imp inh	HNF4A DNA FP	Calb FLC	ALR inh	Vif A3G
O=C(COc1c(F)c(F)cc(F)c1F)NNC(=O)CC1CCS(=O)(=O)C1 (stereo not given)
  -1	5.0	nt	4.3	nt	0	-4%
CSc1nc(SCC(=O)O)c2sc3nc(-c4ccccc4)c4c(c3c2n1)CCC4
  2	nt	-2.3	-85	-7	nt	31%
c1ccc(CCc2nn3c(C4COc5ccccc5O4)nnc3s2)cc1 (stereo not given)
  0	6.6	-0.8	1.9	17	-1	47%
NS(=O)(=O)c1ccc(CCNC(=O)c2ccc(Cn3c(=O)[nH]c4ccccc4c3=O)cc2)cc1
  -12	0.4	4.9	2.6	31	-1	-4%
O=C(NCCc1ccc(OC(F)F)cc1)C1CC(=O)N(c2ccc3c(c2)OCCO3)C1 (stereo not given)
  16	2.0	nt	4.0	nt	nt	nt
Cn1c(=O)oc2cc(S(=O)(=O)CCC(=O)NCCc3ccccc3)ccc21
  -5	-4.3	-0.6	1.5	-12	4	nt
CN(C)c1ccc(C(=O)OCC#CCSc2nnc(-c3cccc4ccccc34)o2)cc1
  2	-5.1	nt	-1.2	nt	-6	nt
CCOC(=O)c1ccc(-n2c(=O)[nH]c3ccccc3c2=O)cc1
  -8	-1.6	2.1	0.3	2	-2	4%
Cc1ccc(S(=O)(=O)N2CCOCC2)cc1NCC(=O)Nc1ccc(OC(F)(F)F)cc1
  -4	1.6	nt	2.6	nt	24	-4%
COc1ccccc1N(CC(=O)Nc1cccc(C(F)(F)F)c1)S(C)(=O)=O
  -1	-2.3	-1.2	0.7	7	-3	19%
Cc1cccc(NC(=O)c2ccc(S(=O)(=O)N3CCCCC3)cc2)n1
  4	1.0	?	2.9	-8	-4	nt
O=C(NCc1ccccn1)C1CCN(Cc2cccc(OCc3ccccc3)c2)CC1
  0	0.6	-2.0	1.0	-51	-3	-2%
CCN(CC)S(=O)(=O)c1ccc2nc(SC)sc2c1
  -12	-6.1	?	0.1	4	-6	0%
CCCc1ccc(OCc2nc(-c3ccc(NC(=O)c4ccco4)cc3)no2)cc1
  27	0.0	-0.3	7.8	-1	-1	26%
Cc1cc(/C=C2\SC(=S)N(C)C2=O)c(C)n1-c1ccc(O)cc1
  -537	3.2	37*	79*	4	nt	17%
c1ccc(Cn2nnc3ccccc32)cc1
  0	0.2	-0.4	0.0	-8	-3	nt
C=CCNc1nc(=S)[nH]c2cc(OC)c(OC)cc12
  -23	-6.5	3.4	4.8	16	0	1%
O=C(COc1ccc(Br)cc1CNC1CCCC1)Nc1ccccc1
  0	-0.7	-1.5	-1.2	-13	2	-12%
CC(C)n1nnnc1SCC(=O)NCc1cccs1
  -3	-4.4	?	1.4	5	-3	-3%
C=CCOc1ccc(/C=C2\SC(=S)N(CCC(=O)O)C2=O)cc1
  12	3.9	-2.3	4.5	2	-6	67%
CCOC(=O)c1c(C)[nH]c(C(=O)OCC(=O)NC2(C#N)CCCCC2)c1C
  5	-0.8	0.3	5.3	-19	1	-10%
Cc1nc2ccccc2n1C(C)c1ccccc1 (stereo not given)
  4	-4.4	1.0	-4.0	4	-2	nt
COCCNC(=O)CCc1nc(-c2ccccc2)no1
  4	-5.6	-2.3	-1.8	4	-10	4%
CCN1CCN(c2ccc(S(=O)(=O)N3CCCCC3)cc2N)CC1
  -2	0.8	nt	-0.9	nt	nt	18%
Cc1ccc(-n2nnnc2CSc2nnc(-c3ccc(O)cc3)o2)cc1
  -1	-2.1	-2.0	-2.2	26	4	nt
O=S(=O)(c1cccc(-c2csc(N/N=C/c3ccco3)n2)c1)N1CCOCC1
  16	-2.5	5.4	1.2	-4	-3	-1%
C/C(=N\Nc1nccnc1Cl)c1ccc(Br)cc1
  -5	-0.9	6.2	0.0	-6	-15	nt
O=C(OCC(=O)N1CCN(c2ccccc2)CC1)c1ncc(Cl)c(Cl)c1Cl
  -10	-1.7	-2.9	1.7	-6	1	-3%
COc1cc(/C=N/N(C)C)ccc1OC(=O)c1cccs1
  -1	-1.8	3.1	1.4	2	43	21%
CN(C)S(=O)(=O)n1cnc([C@@H]2[C@H]3C(=O)OC[C@@H]3C[C@@]23N=CN(Cc2ccccc2)C3=O)c1
  -3	0.0	nt	0.9	nt	-25	nt
CC(C)(C)S(=O)(=O)N1Cc2cc(=O)n(Cc3ccccc3)c(CCO)c2[C@@H]1CCO
  3	nt	nt	5.5	nt	nt	5%
O=C(CN1CCc2[nH]c3ccccc3c2C1)N1CCCCC1
  -4	18*	-4.3	1.6	3	nt	-2%
CCc1nnc(NC(=O)C2CCCO2)s1 (stereo not given)
  1	-7.3	-1.1	-3.5	16	-1	15%
Fc1ccc(Br)cc1C1C=C(c2cccnc2)Nc2ncnn21 (stereo not given)
  -19	-3.5	-53	-15	7	nt	-8%
CC(C)NC(=O)NC(=O)CSc1nnc(COc2ccccc2F)n1C(C)C1CC2CCC1C2 (stereo not given)
  6	nt	-0.1	-5.3	17	nt	3%&-5%
Cc1nc2c3ccccc3nc(NNC(=O)CCC(=O)NCCN3CCN(c4ccccc4)CC3)n2n1
  1	1.4	-2.7	-3.7	-3	98*	nt
O=C1C(Cl)=C(NC2CCCCC2)C(=O)N1c1ccc(Cl)cc1
  1	4.4	14	-2.9	2	nt	-3%
COC(=O)c1cccc(F)c1C(=O)c1cccc2ccccc12
  -2	nt	nt	-0.5	nt	nt	5%
Cc1ccc(Nc2nc(N)nc(CSC(=S)N3CCOCC3)n2)c(C)c1
  1	4.7	-4.1	1.0	3	-1	nt
C=CCN1C(=O)/C(=C\c2cccs2)C(C(=O)OC)=C1C
  1	5.7	3.1	0.9	-1	8	1%
COc1ccc(NC2CCCN(C(=O)c3cccc(N4CCNC4=O)c3)C2)cc1 (stereo not given)
  -6	4.7	-1.1	2.7	-1	99*	nt
COC(=O)C1SCC2C(=O)N(Cc3ccccc3)CC(=O)N21 (stereo not given)
  1	8.5	-1.7	-1.0	3	-10	nt
CCc1c(C)sc(NC(=O)C2CC2c2ccccc2)c1C(N)=O (stereo not given)
  -9	-6.4	0.6	1.2	-3	24	16%
COc1ccc(OC)c(S(=O)(=O)Nc2ccccc2SC)c1
  -7	-4.5	1.7	0.1	2	-11	?
Oc1cc2c(cc1C(c1ccc(Cl)c(Cl)c1)N1CCCC1)OCO2 (stereo not given)
  -4	nt	1.8	-5.9	19	nt	4%
CCOc1ccc2nc(SCC(=O)c3ccc(Cl)s3)sc2c1
  4	6.5	-0.7	2.0	20	-10	-1%
N=C1C(c2ccccc2)=C(O)CN1NC(=O)c1ccc(Cl)cc1
  4	-4.4	-1.8	0.7	?	14	-6%
CC(=O)Nc1cccc(NC=C(C#N)C#N)c1
  24	0.6	2.1	-4.0	-1	-2	13%
CC(C)(C)CNC(=O)c1ccc2c(c1)S(=O)(=O)c1cc(Cl)ccc1C2=O
  0	-0.3	nt	-4.6	nt	3	nt
CCOc1ccc(S(=O)(=O)N(CC)CC(=O)NCc2ccncc2)cc1C
  -2	1.0	0.2	2.8	-5	4	nt

The listing continues:
The line under a structure holds: B2AR ag	LANA-H2B inh	RanGTP-Imp inh	HNF4A DNA FP	Calb FLC	ALR inh	Vif A3G
O=C(CCN1C(=O)C2CC=CCC2C1=O)Nc1ccc(S(=O)(=O)N2CCCCC2)cc1 (stereo not given)
  0	nt	nt	-2.6	nt	nt	-8%
C=C(C)CN(CC)C(=O)CSc1ccc(S(=O)(=O)N2CCN(C)CC2)cn1
  -6	nt	nt	3.8	nt	nt	1%
COc1ccc(N2CCN(Cc3cc(=O)oc4cc(-c5ccccc5)c(O)cc34)CC2)cc1
  5	-1.7	0.9	-1.1	-4	-17	10%
CC(C)c1cc(C(=O)N/N=C/C(Br)=C/c2ccccc2)n[nH]1
  20	2.9	?	0.9	2	26	nt
O=C(N/N=C/c1cc(Cl)cc([N+](=O)[O-])c1O)c1cccc(S(=O)(=O)N2CCOCC2)c1
  4	nt	nt	3.2	nt	nt	9%
COC(=O)C1=C(C)NC(=O)C1(NC(=O)c1ccncc1)C(F)(F)F (stereo not given)
  -1	9.1	-2.0	1.5	5	0	-3%
O=C(NNC(=O)c1sccc1-n1cccc1)c1cccc(Cl)c1
  3	6.5	nt	0.5	-8	22	-6%
CC(=O)Oc1ccc(C(=O)Nc2cc(C)on2)cc1
  -2	-1.6	-1.1	-0.7	15	-4	nt
COc1ccc(CCNC(=O)C2=CCN(S(=O)(=O)c3ccc(F)cc3)CC2)cc1OC
  6	1.8	0.7	-0.2	26	-5	nt
COc1ccc(/C=N/N=C2\CC3CCC2(C)C3(C)C)cc1O (stereo not given)
  5	7.0	-1.9	0.5	2	66	1%
CS(=O)(=O)N1CCc2cc(C(=O)N3CCN(c4ccc(F)cc4)CC3)ccc21
  6	-2.0	2.4	0.1	3	23	nt
COc1ccc(NS(=O)(=O)c2ccc(NS(=O)(=O)c3ccc(C)cc3)cc2)nn1
  -9	-2.4	-2.6	0.4	3	-2	2%
O=C(NC(=S)Nc1ccccn1)c1ccc([N+](=O)[O-])cc1
  -16	nt	2.6	0.9	-7	nt	0%
CC1(C)CC(=O)C(c2ccccc2)(c2ccccc2)C(=O)C1
  -2	nt	nt	0.7	nt	nt	-2%
COCc1ccc(C(=O)NC2CCCc3c2cnn3-c2ccc(C)c(C)c2)o1 (stereo not given)
  8	-105	-2.9	-4.5	-6	10	-4%
C=CCCC(=O)NC1CC(C)(C)Cc2c1cnn2-c1cccc(F)c1 (stereo not given)
  -5	-2.9	?	-1.7	0	3	nt
Nc1ccc(Oc2ccc([N+](=O)[O-])cc2[N+](=O)[O-])cc1
  -6	-1.3	-0.5	6.6	-8	21	?
O=C1CCC(=O)N(O)CCCCCNC(=O)CCC(=O)N(O)CCCCCNC(=O)CCC(=O)N(O)CCCCCN1
  1	0.1	3.4	-4.4	-3	10	nt
C=CCNC(=O)CN1CCC(c2nc3cc(C)c(C)cc3[nH]2)CC1
  13	-3.2	-0.9	0.6	nt	22	2%
Cc1cc(=O)oc(C)c1C(=O)NCc1c(F)cc(F)cc1F
  -3	-1.4	7.7	0.9	-7	3	11%
COc1ccccc1CNC(=O)c1cccnc1
  -4	-14	2.6	0.3	1	-1	7%
CCCn1nnnc1SCC(=O)N1CCN(C(=O)c2ccco2)CC1
  -3	-5.4	-3.2	-2.3	-9	nt	11%
Cc1cc(C)n2nc(C(=O)Nc3ccn(Cc4ccccc4C)n3)cc2n1
  10	10	-1.6	2.7	-1	1	-12%
NC(=O)C1CCN(C(=O)CSc2nc(O)cc(=O)[nH]2)CC1
  3	-2.7	-1.4	0.4	12	3	-4%
COc1cc(OC)c(/C=C2\SC(=O)N(CC(=O)Nc3ccccc3F)C2=O)c(OC)c1
  1	-1.1	46*	3.5	-5	-11	-12%
CCCC(=O)Nc1nc(-c2ccccc2)c(CC)s1
  -6	3.1	-1.5	-0.4	-3	-9	-5%
O=C(CCCSc1nc2ccccc2s1)NCc1ccco1
  8	-3.7	nt	-2.1	nt	1	0%
Cc1cc2oc(=O)cc(CN3CCCCC3C)c2c(C)c1Cl (stereo not given)
  -11	-4.2	0.7	-2.8	10	6	10%
CCN(CC(=O)Nc1c(F)cccc1F)C(=O)Cc1sc(C)nc1-c1ccc(F)cc1
  -4	nt	nt	-2.4	nt	nt	1%
O=S(=O)(Cc1ccccc1)c1nc2ccccc2n1Cc1ccccn1
  -1	-0.3	11	-0.3	0	-15	9%
